Screens deposited in PubChem BioAssay by several laboratories.
FGF22 binding = binders of human FGF22 protein, primary screen, FGF22 synaptogenesis inhibitor project, biophysical, thermal shift, single point | Fibroblast growth factor 22 (Homo sapiens), Q9HCT0 | recombinant FGF22 thermal shift, SYPRO orange fluorescence; percent of sucrose octasulfate shift, DMSO zero | calls only at 9.99 µM | actives 1.5% (n = 340,000) | AID 651658, 2012;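 active = melting point raised past a set limit in the mean and every replicate; inconclusive = no clear call; three in four hits are not shown here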
Target sequence (Q9HCT0 whole entry, looked up): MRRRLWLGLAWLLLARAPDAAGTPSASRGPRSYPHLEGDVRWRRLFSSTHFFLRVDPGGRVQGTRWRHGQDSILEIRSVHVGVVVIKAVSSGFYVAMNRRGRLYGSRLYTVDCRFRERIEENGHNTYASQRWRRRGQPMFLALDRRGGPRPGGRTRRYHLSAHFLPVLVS
Ecoli rRNA inh = reduced GFP signal of wild-type E. coli, primary screen, bacterial rRNA inhibitor project, GFP/RFP fluorescence, OD600, single point; E. coli WT GFP vs humanized-ribosome RFP mutants, 24 h; hits give low values; DMSO median 0, no signal -100; GFP signal change (wild-type ribosome), % (test concentration not listed); actives 1.6% (n = 350,000); AID 720706, 2013;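 active = significant combined selectivity score with lowered wild-type GFP, culture density cut under 30%, mutant RFP and density less affected; inactive = any of these conditions unmet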; also: one replicate is shown; some compounds called inactive have numbers as strong as hits
AF4-AF9 inh = inhibitors of AF4 peptide binding to AF9, primary screen, biochemical, AlphaScreen, biotin-AF4 peptide, FLAG-AF9, single point; actives 0.47% (n = 350,000); inhibition, % at 10 µM;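 active = every replicate reaching a set inhibition limit, whatever the replicate mean, cut at about 25% in these data; inconclusive = mean inhibition reaches that limit but some replicates miss it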;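 also: 0% = plate neutral control median and 100% = total signal loss; the record names both 10 and 1 µM as test concentration; the first replicate is given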
Target sequence (P42568 whole entry, looked up): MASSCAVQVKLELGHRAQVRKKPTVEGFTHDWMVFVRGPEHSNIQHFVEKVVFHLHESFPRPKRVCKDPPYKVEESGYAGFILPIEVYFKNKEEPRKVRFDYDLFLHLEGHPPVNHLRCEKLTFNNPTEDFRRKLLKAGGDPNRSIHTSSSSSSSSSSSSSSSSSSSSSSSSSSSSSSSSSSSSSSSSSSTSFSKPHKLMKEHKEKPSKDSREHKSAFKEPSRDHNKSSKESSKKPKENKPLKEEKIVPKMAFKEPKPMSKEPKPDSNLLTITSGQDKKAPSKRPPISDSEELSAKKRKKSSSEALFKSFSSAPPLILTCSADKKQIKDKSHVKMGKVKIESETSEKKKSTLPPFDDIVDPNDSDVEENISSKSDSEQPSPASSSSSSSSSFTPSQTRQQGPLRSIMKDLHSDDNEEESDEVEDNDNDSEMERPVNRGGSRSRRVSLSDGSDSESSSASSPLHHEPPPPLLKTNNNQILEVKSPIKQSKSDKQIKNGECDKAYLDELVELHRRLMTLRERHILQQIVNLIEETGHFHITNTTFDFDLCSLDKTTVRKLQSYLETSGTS
A1 inh = caspase 3/7 activation in MEF A1-2A-BIM cells, primary screen, A1 inhibitor project, cell-based, luminescence, HTS; AID 2462, 2010; actives 0.066% (n = 330,000); caspase activation, % (test concentration not listed); Caspase-Glo 3/7 luminescence, 3 h; percent of clofoctol response, vehicle zero;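 active = over half of replicate activation scores above 10%, or exactly half above 10 with the replicate mean above 10; inconclusive = replicate mean below 10 yet half the replicates above 10; inactive = over half of replicates below 10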;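 also: wells of about 30 µL received 50 nL stock; many hits fall short of the cut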
Beta apoptosis = inhibitors of cytokine-induced beta cell apoptosis, primary screen, luminescence; actives 0.8% (n = 300,000); protection from apoptosis, % (concentration not given with the values); AID 435005, 2010; INS-1E cytokine-induced death, ATP luminescence, 48 h; percent of positive-control rescue, neutral wells zero;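 active = all replicates at 75% or more, or half of them and the mean; inconclusive = half reach 75% but not the mean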;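 also: 0% = cytokine-treated negative control wells and 100% = positive control rescue; higher means more ATP so stronger rescue from cytokine killing; wells of about 40 µL received 100 nL stock; the first replicate is given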
T cruzi inh = inhibitors of intracellular T. cruzi growth, primary screen, luminescence, NIH3T3 host cells; T. cruzi beta-gal in NIH3T3, 90 h; inhibition, % (no concentration beside the values); actives 1.4% (n = 300,000); AID 1885, 2009;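 active = mean inhibition across valid replicates above about 55%, limit read from the data; inconclusive = mean below that limit but half or more replicates reach it; inactive = mean below it, under half of replicates reach it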;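 also: signal also drops with host cell toxicity which is not excluded here; 0% = plate median of DMSO wells and 100% = zero luminescence signal; higher percent means less beta-gal luminescence so fewer parasites; stock transfer was 50 nL into about 50 µL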
Ecoli growth = E. coli growth inhibition, primary screen, OD600; Escherichia coli growth, 23 h; hits give low values; OD600 absorbance (concentration not given with the values); actives 0.21% (n = 330,000); AID 1053175, 2014;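 active = OD600 absorbance below the run mean of sample wells minus 3.6 SD, in any replicate, cut at about 0.56 in these data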;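 also: stock transfer was 300 nL into about 60 µL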
UCH37 inh = inhibitors of human UCH37 deubiquitinase, primary screen, biochemical, Ub-AMC cleavage, fluorescence. Ubiquitin carboxyl-terminal hydrolase isozyme L5 (Homo sapiens), Q9Y5K5. purified proteasome/UCH37. inhibition, % (no concentration beside the values). actives 0.33% (n = 330,000). AID 588478, 2011;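 active = mean of two replicates above 20%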;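 also: 0% = compound-free wells with enzyme and 100% = wells lacking proteasome; stock transfer was 100 nL into about 20 µL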
Target sequence (Q9Y5K5 whole entry, looked up): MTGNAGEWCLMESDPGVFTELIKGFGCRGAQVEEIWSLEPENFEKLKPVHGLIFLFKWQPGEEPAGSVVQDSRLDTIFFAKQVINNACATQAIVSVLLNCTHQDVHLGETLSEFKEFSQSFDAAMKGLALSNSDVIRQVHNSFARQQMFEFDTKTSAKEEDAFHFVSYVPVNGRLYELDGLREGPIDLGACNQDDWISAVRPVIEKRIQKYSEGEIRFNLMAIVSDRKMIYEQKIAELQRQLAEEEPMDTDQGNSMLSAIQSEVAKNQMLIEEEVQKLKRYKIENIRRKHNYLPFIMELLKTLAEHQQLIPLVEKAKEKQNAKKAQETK
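Schedule: 30 min plus 25 min, room temperature / Material: human UCH37 within purified proteasomes / Technique: AMC fluorescence intensity at 355/460 nm / Buffer or medium: pH 7.4 Tris-HCl (50 mM) with ovalbumin, ATP-MgCl2, DTT / Controls: wells without proteasome as full block, compound-free enzyme plus substrate as uninhibited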
Ecoli rRNA inh OD600 = second read-out of Ecoli rRNA inh, no call of its own (marks repeat the call); OD600 change, %; measured here: OD600 growth;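 optical density of the mix in the first replicate; 0 = DMSO median and -100 = no signal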
Ecoli rRNA inh RFP = recorded beside Ecoli rRNA inh, whose call it bears; RFP signal change, %; measured here: RFP humanized mutant strains;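 first replicate; 0 = DMSO median and -100 = no signal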
Numbers without * were called inactive; i = inactive; ? = inconclusive; nt = not tested or not shown; & = joins results of further samples.

SMILES	FGF22 binding	Ecoli rRNA inh	Ecoli rRNA inh OD600	Ecoli rRNA inh RFP	AF4-AF9 inh	A1 inh	Beta apoptosis	T cruzi inh	Ecoli growth	UCH37 inh
C/C(=N\NC(=O)COc1ccccc1-c1ccccc1)c1ccc(O)cc1O	i	-25	-23	-6.2	-0.6	2.1	81*	77*	nt	nt
CCC(C)(C)n1nnnc1C(c1cccs1)N1CCN(c2nc3ccccc3s2)CC1 (centres undefined)	nt	nt	nt	nt	nt	0.1	16	67*	0.67	1.4
COc1ccc(-c2ccc(C#N)c(SCC(=O)OCc3ccccc3)n2)cc1OC	nt	nt	nt	nt	nt	-0.4	2	-9	0.75	-124
CN(C)c1ccc(C(CNC(=O)c2cccs2)N(C)C)cc1 (centres undefined)	i	6	8	0.3	7.0	1.5	-4	-1	0.66	0.2
COC(=O)CSc1nnc(Cc2ccccc2)n1-c1ccc(C)cc1	nt	nt	nt	nt	nt	0.2	-3	0	0.69	0.7
CCCNC(=O)COc1ncnc2sccc12	i	21	16	4.0	-2.5	-0.6	0	-6	0.7	-2.7
O=C(NCc1ccc(F)cc1)c1cc2n(n1)C(C(F)(F)F)CC(C1CC1)N2 (centres undefined)	i	4	0	-0.2	4.4	-0.5	-1	0	0.72	4.2
COc1ccc(CN2CC34C=CC(O3)C(C(=O)O)C4C2=O)cc1 (centres undefined)	i	10	19	-1.3	0.1	-0.7	-1	-17	0.72	0.2
CCN(CC(=O)Nc1cccc(C#N)c1)CC(=O)Nc1cccc(OC)c1	i	-22*	-3.8*	5.3*	-1.4	-0.3	-3	0	0.65	-2.8
Cc1ccc(C(=O)NCC(=O)OCC(=O)NC(C)C2CC3CCC2C3)cc1 (centres undefined)	i	0	0	-2.2	0.7	nt	nt	nt	0.66	1.9
COc1cccc(CNC(=O)C2CC(=O)N(C3CCCCC3)C2)c1 (centres undefined)	i	5	14	-0.3	0.0	1.1	3	-5	0.67	4.4
COc1cc(NC(=O)c2cc3nc(-c4ccccc4)cc(-c4ccccc4)n3n2)cc(OC)c1OC	nt	nt	nt	nt	nt	0.3	30	10	0.68	-4.8

The final 2 entries of the section above open the next one:
SMILES	FGF22 binding	Ecoli rRNA inh	Ecoli rRNA inh OD600	Ecoli rRNA inh RFP	AF4-AF9 inh	A1 inh	Beta apoptosis	T cruzi inh	Ecoli growth	UCH37 inh
COc1cccc(CNC(=O)C2CC(=O)N(C3CCCCC3)C2)c1 (centres undefined)	i	5	14	-0.3	0.0	1.1	3	-5	0.67	4.4
COc1cc(NC(=O)c2cc3nc(-c4ccccc4)cc(-c4ccccc4)n3n2)cc(OC)c1OC	nt	nt	nt	nt	nt	0.3	30	10	0.68	-4.8
O=[N+]([O-])c1cccc(S(=O)(=O)Nc2ccc3cn[nH]c3c2)c1	i	-13	-6	-7.5	0.9	1.1	2	nt	0.69	1.0
Cc1ccc(C)c(N2CCN(C(=O)c3ccccc3Br)CC2)c1	nt	nt	nt	nt	nt	1.7	1	8	0.65	0.0
O=C(c1ccco1)N1CCN(C(=O)N2c3ccccc3Sc3ccccc32)CC1	i	-31	-47	2.4	2.2	0.2	44	4	0.68	1.7
Cc1ccc(C(=O)NCC(=O)Nc2cccc(S(=O)(=O)NC3=NCCCCC3)c2)cc1C	i	3	0	1.3	0.0	-0.4	-4	16	0.71	2.4
COc1ccc(C2=NOC(C(=O)N3CCCc4ccccc43)C2)cc1 (centres undefined)	nt	nt	nt	nt	nt	?	-3	13	0.71	4.4
CC(=O)Oc1ccc(N2C(=O)CCC2=O)cc1	nt	nt	nt	nt	nt	0.9	-2	-4	0.72	1.8
C[C@H](CO)N1C[C@H](C)[C@@H](CN(C)C(=O)NC2CCCCC2)Oc2ccc(NS(=O)(=O)c3ccc(F)cc3)cc2C1=O	i	1&3	9&2	4.7&0.4	-0.6&-1.3&-1.4	0.0	-4	nt	nt	1.3
CCC1=Nc2cc(C(=O)NCCN3CCCC3)ccc2Sc2ccccc21	i	11	7	3.7	11	1.2	-5	18	0.72	1.7
CCOc1ccc(CCNC(=O)CCN2C(=O)COc3ccccc32)cc1OCC	nt	nt	nt	nt	nt	-0.1	0	4	0.7	3.4
CC1CN(C(=O)COC(=O)CSc2ccc([N+](=O)[O-])cc2)CC(C)O1 (centres undefined)	i	0	6	-0.4	-2.0	nt	nt	nt	0.69	9.9
Cc1nc(NCCN)c(C#N)c2c1COC(C)(C)C2	nt	nt	nt	nt	nt	0.0	-7	16	0.69	nt
Cc1cc(C(=O)Nc2ccccc2Cl)n(-c2ccccc2)n1	i	4	1	3.5	-0.4	-0.1	1	5	0.71	-1.8
Cc1ccc(Nc2nc(N)nc(CN3CCCCCC3)n2)cc1	nt	nt	nt	nt	nt	0.1	-9	5	0.7	1.7
CCCCN(C)C(=O)CNC(=O)c1nn(-c2ccc(OC)cc2OC)c(=O)c2ccccc12	i	15	21	3.5	-1.3	1.4	0	-7	0.7	3.5
O=C(Nc1cccc(S(=O)(=O)N2CCCCCC2)c1)C1CCN(C(=O)c2ccc(F)cc2)CC1	i	-15	-36	0.7	-3.1	-0.7	-2	16	0.69	1.9
COc1cc(CNCc2ccncc2)cc(Br)c1OCc1ccccc1F	nt	nt	nt	nt	nt	1.2	22	55*	0.71	5.8
Cc1ccc2c(C)c(C(=O)NCCN3CCOC3=O)oc2c1C	i	-2	-2	2.7	2.1	-0.1	-7	-4	0.68	-0.3
O=C(Cc1ccccc1)Nc1cccc(-c2nnc(-c3ccco3)o2)c1	nt	nt	nt	nt	nt	1.3	7	9	0.76	-3.2
CC(=O)c1cccc(NC(=O)CN(C)S(=O)(=O)c2cccc3nsnc23)c1	i	-2	4	0.5	-1.2	1.4	-3	-14	0.67	3.1
Cc1ccc(Sc2ncccc2C(=O)NCc2cc([N+](=O)[O-])ccc2O)cc1C	i	-43	-53	-5.3	0.8	3.7	8	-7	0.7	8.4
O=C(Cn1cnc2c(cnn2-c2ccc(F)cc2)c1=O)NCC1CCCO1 (centres undefined)	nt	nt	nt	nt	nt	-0.3	-5	nt	0.74	0.3
COc1cccc(C(=O)CSc2nc3cccnc3n2C)c1	nt	nt	nt	nt	nt	-0.2	-8	1	0.71	7.0
CC(C)C(C(=O)Nc1ccccc1)N1C(=O)c2ccccc2C1=O (centres undefined)	i	-6	-8	1.5	4.8	0.4	2	-6	0.72	8.9
Cn1c(CNc2nc3ccccc3n2C)nc2ccccc21	nt	nt	nt	nt	nt	-2.5	-5	-4	0.69	5.4
CCC(Sc1nc(C)cc(C)n1)C(=O)Nc1ccc(Cl)cn1 (centres undefined)	nt	nt	nt	nt	nt	-0.5	-3	21	0.69	-0.2
Cc1ccccc1OCc1nc(-c2ccc(-n3cccc3)cc2)no1	i	-6	-4	9.3	0.5	-0.1	-3	-28	0.76	2.1
CCOCCCNCc1cccc(OC)c1	nt	nt	nt	nt	nt	0.6	2	3	0.73	4.0
N/C(=N\OC(=O)Cc1cccs1)c1ccc(Cl)cc1	i	1	-15	4.8	3.4	0.0	3	-18	0.64	0.8
Cc1ccc(S(=O)(=O)NC(=O)NCCCN2CCOCC2)cc1	i	5	7	-2.3	-5.2	-0.3	-6	2	0.7	0.1
Cc1ccc(NC(=O)CSc2nc(N)c3c4c(sc3n2)CSC(C)(C)C4)cc1	i	-7	-31	31	1.9	-1.5	-15	25	0.7	-0.5
CCOC(=O)c1ccc(NC(=O)C2CCN(S(=O)(=O)c3c(C)nn(C)c3C)CC2)cc1	i	1	13	0.9	0.4	0.3	-1	14	0.67	0.6
O=S(=O)(NCCc1ccc(F)cc1)c1cccc2cccnc12	nt	-26	-23	-1.1	-2.3	-0.2	2	23	0.69	4.6
COc1cccc(N2C(=O)C3NN=C(C(=O)CN4C(=O)c5ccccc5C4=O)C3C2=O)c1 (centres undefined)	i	-4	3	-5.0	nt	-0.1	-2	?	0.63	6.2
CC(C)n1c(CCC(=O)O)ccc1-c1ccccc1	i	2	0	2.9	-2.1	-0.4	3	0	0.73	-11
O=C1CCCN1CC(O)CS(=O)(=O)Cc1ccccc1 (centres undefined)	i	16	15	-0.3	1.1	1.3	1	-9	0.69	2.9
CCCCOc1cccc(-c2nnc(N)s2)c1	nt	nt	nt	nt	nt	-0.9	-5	6	0.7	-2.6
CC(C)=CCC[C@](C)(O)C1CC[C@]2(C)C1[C@H](O)CC1[C@@]3(C)CC[C@H](O[C@@H]4O[C@H](CO)[C@@H](O)[C@H](O)[C@H]4O[C@@H]4O[C@H](CO)[C@@H](O)[C@H](O)[C@H]4O)C(C)(C)C3CC[C@]12C (some centres undefined)	i	8	10	10	13	nt	nt	nt	nt	0.4
O=C(CSc1nc(=O)n2ccccc2n1)Nc1ccc2c(c1)OCO2	i	1	1	-0.1	0.1	0.7	6	-2	0.66	9.0
O=C(CSc1nncn1-c1ccccc1)Nc1cc(F)ccc1F	i	nt	nt	nt	0.3	0.3	-9	9	0.65	4.6
Cc1cc(C(=O)Cn2nc(C(=O)O)c3ccccc3c2=O)c(C)n1CCc1ccc(F)cc1	i	-5	-5	3.4	-11	-0.6	1	11	0.68	5.4
CCn1c(=O)c(C(=O)CN2CCN(S(=O)(=O)c3ccccc3)CC2)c(N)n(Cc2ccccc2)c1=O	i	-22	-18	2.7	2.6	0.0	-3	-5	0.69	5.2
Cc1ccc(C)c(NC(=O)COC(=O)COc2cccc3c2OC(C)(C)C3)c1	i	1	12	0.3	-2.0	-0.4	-3	-10	0.67	0.3
O=C(COC(=O)c1cc([N+](=O)[O-])ccc1N1CCOCC1)NCCc1ccccc1	i	1	1	-0.4	-1.9	0.3	-4	-7	0.7	4.3
COc1ccc(Cl)cc1/C=N/NC(=O)c1c(-c2ccccc2)noc1C	i	-17*	3.0*	1.6*	0.4	1.1	-1	-5	nt	nt
Cc1ccc(OCCCC(=O)Nc2nncs2)cc1	nt	nt	nt	nt	nt	-0.1	-1	-2	0.68	-0.3
CCN(C(=O)C(C)Cl)c1ccccc1 (centres undefined)	i	nt	nt	nt	0.0	-0.3	-4	-14	0.66	1.4
C=CCNC(=O)c1cc(-c2ccc3c(c2)OCO3)on1	i	10	17	0.1	-2.6	-2.4	9	-10	0.66	2.5
COc1cc(/C=C/c2ccc3cccc(O)c3n2)cc(OC)c1OC	i	-3	-7	5.4	-2.3	0.2	33	45	0.68	0.7
Cc1cc(Nc2ccccc2Cl)nc(-c2ccccc2O)n1	i	-11	-41	6.4	-15	?	14	17	0.69	-1.9

Not all compounds are listed; rates above refer to the full screens.
